FGF22 binding – FGF22 (human) thermal shift binding; recombinant FGF22 thermal shift, SYPRO orange fluorescence; percent of sucrose octasulfate shift, DMSO zero; calls only at 9.99 µM; 340,000 compounds, 1.5% hits; AID 651658;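 active = melting point raised past a set limit in the mean and every replicate; inconclusive = no clear call; three in four hits are not shown here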
Target sequence (Q9HCT0 whole entry, looked up): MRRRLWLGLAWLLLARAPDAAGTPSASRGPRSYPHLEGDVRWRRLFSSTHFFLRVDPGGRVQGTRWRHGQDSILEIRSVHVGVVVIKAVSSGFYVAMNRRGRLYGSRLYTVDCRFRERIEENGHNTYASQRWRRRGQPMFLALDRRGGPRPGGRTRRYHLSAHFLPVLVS
Ecoli rRNA inh – inhibitors of bacterial rRNA selective over humanized ribosomes; GFP signal change (wild-type ribosome), % (test concentration not listed); 350,000 compounds, 1.6% hits; E. coli WT GFP vs humanized-ribosome RFP mutants, fluorescence, 24 h; active compounds read low; DMSO median 0, no signal -100;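 active = significant combined selectivity score with lowered wild-type GFP, culture density cut under 30%, mutant RFP and density less affected; inactive = any of these conditions unmet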; also: one replicate is shown; some compounds called inactive have numbers as strong as hits
Beta cell apopt – blocks beta cell apoptosis. INS-1E cytokine-induced death, ATP luminescence, 48 h; percent of positive-control rescue, neutral wells zero. protection from apoptosis, % (test concentration not listed). 300,000 compounds, 0.8% hits. AID 435005;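 active = all replicates at 75% or more, or half of them and the mean; inconclusive = half reach 75% but not the mean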;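 also: 0% = cytokine-treated negative control wells and 100% = positive control rescue; higher means more ATP so stronger rescue from cytokine killing; wells of about 40 µL received 100 nL stock; the first replicate is given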
Calb FLC – affects C. albicans growth with fluconazole; growth inhibition, % (test concentration not listed); AID 1979; 300,000 compounds, 0.57% hits; C. albicans CaCi-2 (fluconazole-resistant clinical isolate) + fluconazole, Alamar Blue growth, 48 h;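 active = most replicates above 75%; inconclusive = exactly half above 75%; inactive = most below 75%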;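 also: all wells also contain fluconazole at 8 µg/ml as a sub-toxic cotreatment; 0% = median of DMSO wells and 100% = median of geldanamycin control wells; wells of about 8 µL received 7.5 nL stock; the first replicate is given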
MLL AF4-AF9 inh – inhibitors of human MLL-AF4/AF9 interaction. 350,000 compounds, 0.47% hits. inhibition, % at 10 µM. AlphaScreen, biotin-AF4 peptide binding to FLAG-AF9;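 active = every replicate reaching a set inhibition limit, whatever the replicate mean, cut at about 25% in these data; inconclusive = mean inhibition reaches that limit but some replicates miss it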;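 also: 0% = plate neutral control median and 100% = total signal loss; the record names both 10 and 1 µM as test concentration; the first replicate is given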
Target sequence (P42568 whole entry, looked up): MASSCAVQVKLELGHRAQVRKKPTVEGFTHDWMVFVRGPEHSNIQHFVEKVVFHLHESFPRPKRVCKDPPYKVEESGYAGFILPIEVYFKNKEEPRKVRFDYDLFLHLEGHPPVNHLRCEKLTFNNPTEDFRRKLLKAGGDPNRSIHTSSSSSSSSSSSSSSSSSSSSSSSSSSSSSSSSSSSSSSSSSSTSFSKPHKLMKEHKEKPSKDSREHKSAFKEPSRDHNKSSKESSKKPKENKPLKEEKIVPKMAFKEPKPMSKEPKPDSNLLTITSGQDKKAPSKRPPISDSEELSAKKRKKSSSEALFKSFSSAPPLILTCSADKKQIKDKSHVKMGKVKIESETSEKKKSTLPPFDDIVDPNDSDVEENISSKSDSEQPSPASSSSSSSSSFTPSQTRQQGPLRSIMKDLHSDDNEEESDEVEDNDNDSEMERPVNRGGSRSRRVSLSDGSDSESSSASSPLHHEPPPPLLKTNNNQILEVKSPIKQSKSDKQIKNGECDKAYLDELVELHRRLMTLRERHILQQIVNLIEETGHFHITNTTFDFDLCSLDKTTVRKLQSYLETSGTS
RanGTP-Impb inh – inhibitors of RanGTP-importin-beta interaction, primary screen, biochemical, FRET, CFP-Ran, YFP-importin-beta, homogeneous. cell-free CFP-Ran/YFP-importin-beta FRET ratio. inhibition, % (concentration not given with the values). 300,000 compounds, 1.1% hits. AID 2216;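 active = most replicates above 15%; inconclusive = exactly half above 15%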;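 also: 0% = DMSO wells and 100% = Ran loaded with GDP instead of GTP; wells of about 40 µL received 100 nL stock; the first replicate is given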
ALR inh – inhibitors of human sulfhydryl oxidase ALR. purified ALR, DTT oxidation, H2O2 HRP-luminol luminescence. inhibition, % (test concentration not listed). 290,000 compounds, 3.8% hits. AID 485317;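 active = mean and each replicate at 75% or more; inconclusive = only one of the two met; inactive = neither met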;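 also: stock transfer was 7.5 nL into about 7.5 µL; 0% = neutral wells and 100% = wells with inactivated enzyme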
Target sequence (P55789 whole entry, looked up): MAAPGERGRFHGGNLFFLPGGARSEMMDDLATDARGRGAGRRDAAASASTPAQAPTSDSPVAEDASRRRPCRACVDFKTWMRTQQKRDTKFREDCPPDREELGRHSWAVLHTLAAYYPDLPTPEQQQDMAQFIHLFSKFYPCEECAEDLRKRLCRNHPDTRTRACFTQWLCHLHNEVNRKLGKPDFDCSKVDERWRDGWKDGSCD
T cruzi repl – blocks replication of Trypanosoma cruzi; T. cruzi beta-gal in NIH3T3, luminescence, 90 h; inhibition, % (concentration not given with the values); 300,000 compounds, 1.4% hits; AID 1885;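 active = mean inhibition across valid replicates above about 55%, limit read from the data; inconclusive = mean below that limit but half or more replicates reach it; inactive = mean below it, under half of replicates reach it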;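 also: signal also drops with host cell toxicity which is not excluded here; 0% = plate median of DMSO wells and 100% = zero luminescence signal; higher percent means less beta-gal luminescence so fewer parasites; stock transfer was 50 nL into about 50 µL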
Ecoli rRNA inh OD600 – further read-out of Ecoli rRNA inh, marked with its call; OD600 change, %; measured here: OD600 growth;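 optical density of the mix in the first replicate; 0 = DMSO median and -100 = no signal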
Ecoli rRNA inh RFP – further read-out of Ecoli rRNA inh, marked with its call; RFP signal change, %; measured here: RFP humanized mutant strains;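 first replicate; 0 = DMSO median and -100 = no signal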
The depositor's hits bear a star; i = inactive; ? = inconclusive; · = not tested or not shown. The list is partial; rates above refer to the full screens.

| SMILES | FGF22 binding | Ecoli rRNA inh | Ecoli rRNA inh OD600 | Ecoli rRNA inh RFP | Beta cell apopt | Calb FLC | MLL AF4-AF9 inh | RanGTP-Impb inh | ALR inh | T cruzi repl |
| --- | --- | --- | --- | --- | --- | --- | --- | --- | --- | --- |
| CC(C)NC(=O)NC(=O)COC(=O)/C=C/c1ccccc1[N+](=O)[O-] | i | -1 | 1 | -0.4 | -2 | -3 | 0.2 | 0.3 | -8 | -59 |
| COC(=O)c1sc(SC)c(S(=O)(=O)C(C)C)c1N | i | 3 | 20 | 0.6 | -6 | 3 | -2.8 | -1.3 | -2 | -24 |
| CCCCOc1ccc(C(=O)Nn2c(-c3cccs3)nc3ccccc3c2=O)cc1 | · | · | · | · | -1 | -18 | · | 6.5 | -5 | 14 |
| COc1ccc(CC(=O)N/N=C(\C)c2cccs2)cc1 | · | 11 | 10 | -0.3 | 0 | 1 | -0.3 | 2.8 | · | 2 |
| CC(=O)c1ccc(N2CCN(C(=O)c3ccc4nc[nH]c4c3)CC2)cc1 | · | · | · | · | -5 | -2 | · | 1.6 | 40 | 17 |
| O=C(COc1ccccc1)Nc1ccc(C(=O)N2CCCC2)cc1 | i | 4 | 14 | -1.3 | -3 | 3 | 0.9 | -3.3 | -6 | -6 |
| COc1ccc(Cc2nc(-c3cccs3)no2)cc1 | i | -16 | -15 | -0.8 | 3 | 11 | -5.3 | -0.8 | -18 | 11 |
| O=C1COc2ccc(C(=O)COC(=O)Cc3ccsc3)cc2N1 | i | -5 | 3 | -0.9 | · | 0 | -0.7 | 5.6 | -6 | -7 |
| CN(Cc1ncc[nH]1)C(=O)CC1C(=O)NCCN1Cc1c(F)cccc1Cl (stereo not drawn) | i | 7 | 12 | 3.5 | -8 | 8 | -3.3 | ? | -4 | -4 |
| O=C(NC1CCN(C(=O)Nc2cccc(F)c2)CC1)C1CCCCC1 | · | · | · | · | -1 | -14 | · | 0.7 | · | -4 |
| Cc1ccc(S(=O)(=O)N2CCN(C(=O)COc3ccc(-c4nnco4)cc3)CC2)cc1 | · | · | · | · | 0 | 4 | · | -0.7 | -9 | 6 |
| CCO[C@@H]1OC(C(=O)N2CCN(C)CC2)=C[C@H](c2csc3ccccc23)[C@H]1CCCO | i | -3 | -6 | -3.4 | 7 | -8 | -1.1 | 2.7 | -4 | -3 |
| CCC1CCCCN1S(=O)(=O)c1ccc(C(=O)Nc2nnc(C3CC3)o2)cc1 (stereo not drawn) | i | · | · | · | 4 | 5 | 2.9 | 7.0 | 29 | 19 |
| O=C(N/N=C/c1cccc([N+](=O)[O-])c1)C1CC(=O)N(c2ccc(F)cc2)C1 (stereo not drawn) | · | · | · | · | -4 | 6 | · | 1.5 | -8 | 12 |
| O=C(NC1=NCCS1)c1ccc(Br)s1 | · | · | · | · | 1 | -2 | · | -2.0 | -3 | 6 |
| Cc1ccc(NC(=O)c2cc(S(=O)(=O)N3CCCC3)cn2C)cc1 | i | -1 | -1 | 8.0 | -10 | 5 | -3.0 | -0.4 | 5 | -6 |
| O=C(c1nc2ccccc2s1)N1CCSCC1 | · | · | · | · | 0 | 3 | · | 3.4 | 3 | -4 |
| Cc1cccc(N(O)C(=O)Nc2cccc(Cl)c2)c1 | i | -56 | -80 | -27 | -1 | 2 | 1.6 | 1.1 | -1 | 1 |
| CC(NC(=O)COc1ccccc1)C(=O)N1CCN(c2ccccc2)CC1 (stereo not drawn) | i | 0 | -2 | -1.7 | -10 | · | -2.2 | · | · | · |
| COc1ccc(C(C(=O)NC(C)(C)C)N(CCc2ccccc2)C(=O)CCC(=O)Nc2cc(C)on2)cc1 (stereo not drawn) | i | -2 | 2 | -2.5 | 0 | -4 | 0.7 | 2.0 | · | 11 |
| COc1nonc1NCn1nc(C)cc1C | · | · | · | · | -4 | 0 | · | 2.8 | 3 | -9 |
| OCCC1CN(Cc2ccc(Oc3ncccn3)cc2)CCN1Cc1ccc(F)c(F)c1 (stereo not drawn) | i | 5 | 2 | 1.3 | 1 | -7 | -0.5 | 0.9 | 1 | 7 |
| Cc1ccc(C)c(OCCC(=O)OCC(=O)Nc2cccc(S(=O)(=O)N3CCCC3)c2)c1 | i | -7 | -13 | 4.1 | -4 | -4 | -1.5 | -0.9 | 7 | -10 |
| O=C(COc1coc(CN2CCN(c3ccccc3)CC2)cc1=O)N1CCc2ccccc21 | i | 1 | -1 | -1.1 | · | 2 | 0.3 | 0.6 | 4 | -3 |
| Nc1nnc(SCC(=O)Nc2cccc(S(=O)(=O)N3CCCCC3)c2)s1 | i | -13 | -6 | -2.2 | -3 | · | 3.2 | · | 16 | · |
| CCOc1ccc(CCNC(=O)Cn2ccc3ccccc3c2=O)cc1OCC | i | 9 | 10 | -0.3 | -5 | -4 | -2.1 | -1.2 | 9 | -1 |
| COc1cc(C2NC(=O)NC(C)=C2C(=O)OC(C)C)ccc1OC(=O)c1ccco1 (stereo not drawn) | · | · | · | · | -1 | 2 | · | 4.4 | -4 | 4 |
| CC1(C)CC(=O)N(c2cc(Cl)ccc2Cl)C(=O)C1 | i | 4 | 2 | 0.2 | -7 | -18 | -6.9 | -0.7 | -12 | 0 |
| O=C(Nc1ncn[nH]1)c1cc(S(=O)(=O)Nc2cccc(C(F)(F)F)c2)ccc1Cl | i | 3 | 6 | 0.9 | -2 | 4 | -3.5 | 1.7 | 0 | -5 |
| C/C(=N/NS(=O)(=O)c1cc(C)ccc1C)c1ccc2c(c1)OCO2 | i | -10 | -7 | 5.1 | -4 | -7 | -0.1 | 1.6 | 28 | -11 |
| Cn1cc(S(=O)(=O)CC(=O)N2CCc3ccccc32)c2ccccc21 | i | 5 | 6 | -0.5 | -12 | 0 | -4.0 | -4.1 | · | 8 |
| Cc1cccc(-n2cnc(C(=O)Nc3cccnc3)c2)n1 | · | · | · | · | -2 | 9 | · | -1.0 | 4 | · |
| COc1cccc(-n2c(Cc3cc(=O)[nH]c(=O)[nH]3)nnc2SCC(=O)NC2CCCC2)c1 | i | 13 | 12 | 0.6 | -4 | · | 2.8 | · | -6 | · |
| COC(=O)Nc1sc2c(c1C(=O)N1CCOCC1)CCC(C)C2 (stereo not drawn) | i | -1 | -6 | -0.7 | 0 | 10 | -1.1 | 1.8 | -1 | 14 |
| c1ccc(CSc2nccc(-c3ccco3)n2)cc1 | i | -36* | -28* | 6.2* | -1 | -3 | -3.2 | 3.0 | 1 | -17 |
| Cc1cc(-c2csc3ncnc(N4CCN(C)CC4)c23)cc(C)c1C | i | -12 | -20 | 3.9 | 6 | -1 | 8.0 | -1.3 | 3 | 3 |
| Cc1csc(NC(=O)CS(=O)(=O)Cc2ccccc2)n1 | i | 1 | -2 | -1.6 | 1 | -19 | -9.5 | 0.1 | -4 | -14 |
| Nc1nc(SCC(=O)Nc2ccccc2)[nH]c(=O)c1NC(=O)c1cccs1 | i | 2 | 11 | -2.5 | -5 | -2 | 0.3 | 3.6 | -4 | 0 |
| O=C(O)c1ccc(CN2C(=O)c3ccccc3S2(=O)=O)cc1 | · | · | · | · | -3 | 8 | · | 0.4 | 4 | -12 |
| Cc1nc2ccccc2c2c1CC(C(C)(Cl)Br)O2 (stereo not drawn) | i | -30* | -16* | -3.3* | 57 | 29 | -14 | 6.0 | 2 | 18 |
| Cc1cc2ccccc2n1CCNC(=O)C(C)(C)C | i | 1 | 7 | 47 | -4 | 0 | 6.9 | 2.3 | -16 | 36 |
| CCOc1ccccc1OCC(=O)NN1Cc2ccccc2C1=N | · | · | · | · | -5 | -5 | · | 0.8 | -12 | -13 |
| Cn1c(C(=O)OCC(=O)NCc2ccc(F)cc2)cc2occc21 | i | 8 | 12 | 2.2 | 2 | -1 | 0.8 | -4.2 | · | -2 |
| CCCCNC(=O)CNC(=S)N(Cc1ccccc1)Cc1cccnc1 | · | · | · | · | -4 | -2 | · | 2.8 | -3 | 45 |
| CCOc1ccc(NC(=O)CSc2nc(=O)n(CCCN3CCOCC3)c3c2CCC3)cc1 | i | 12 | 0 | 0.1 | 0 | 2 | 0.5 | ? | 97* | 1 |
| O=C(CCN1C(=O)c2ccccc2C1=O)Nc1cccc(O)c1 | i | 5 | 11 | 1.2 | -1 | -5 | -2.9 | 0.7 | -4 | -3 |
| COC(=O)c1cnc(Oc2ccc(NC(=O)NC(=O)c3c(F)cccc3Cl)cc2)cc1C(F)(F)F | i | 9 | 11 | -2.0 | 12 | -5 | -1.9 | 6.4 | -4 | 5 |
| COc1ccc(NC(=O)C(CC(=O)O)Cc2ccc(Cl)cc2)cc1 (stereo not drawn) | i | 11 | 8 | 1.7 | -1 | 7 | -16 | 4.3 | -3 | -11 |
| CN(C)CCNC(=O)COc1ccc(Cl)cc1Cl | · | · | · | · | 0 | -10 | · | -0.3 | -7 | 50 |
| COc1ccc(NC2=C3CCCC=C3N(c3ccc(OC)cc3)C2=O)cc1 | i | 4 | 8 | 0.7 | 2 | -11 | 4.9 | 7.8 | 49 | 5 |
| COC(=O)CN(c1ccccc1)S(=O)(=O)c1cc(Br)ccc1OC | i | -20 | -24 | 2.7 | -6 | 19 | -1.3 | ? | 3 | · |
| CC(=O)c1ccc(NC(=O)CCCN2C(=O)COc3ccc(C)cc32)cc1 | i | -16 | -12 | 2.5 | 2 | -1 | 0.3 | -1.4 | 8 | 3 |
| Cc1ccnc(SCc2cc(=O)c(OC(=O)c3ccc(Br)o3)co2)n1 | · | · | · | · | -5 | -25 | · | 4.6 | 16 | -19 |
| CC1=NN(c2nc3ccccc3[nH]2)C(=O)C1Cc1ccccc1 (stereo not drawn) | · | 10 | 4 | 9.2 | 99* | -2 | · | 11 | 72 | 9 |
| CC(=O)Nc1nc(-c2ccccc2)c(-c2ccccc2)o1 | i | 6 | 9 | 6.1 | -4 | 2 | 3.6 | · | 7 | -14 |
| COc1cccc(N2CCN(CC(=O)Nc3nc4c(s3)CC(C)CC4)CC2)c1 (stereo not drawn) | · | · | · | · | 3 | -1 | · | -1.4 | · | 3 |

Going on with the list.
| SMILES | FGF22 binding | Ecoli rRNA inh | Ecoli rRNA inh OD600 | Ecoli rRNA inh RFP | Beta cell apopt | Calb FLC | MLL AF4-AF9 inh | RanGTP-Impb inh | ALR inh | T cruzi repl |
| --- | --- | --- | --- | --- | --- | --- | --- | --- | --- | --- |
| COc1cc(C2NC(=S)NC3=C2C(=O)CCC3)ccc1O (stereo not drawn) | i | 1 | 1 | -2.6 | -6 | -5 | -1.0 | 0.4 | 26 | -1 |
| O=C(CCc1ccccc1)NCCS(=O)(=O)N1CCN(c2ccccc2)CC1 | i | 7 | 4 | 0.7 | · | -3 | -1.3 | 6.8 | 12 | -7 |
| CCOC(=O)c1ccc2c(c1)n(CC)c(C)[n+]2CC | i | 17 | 14 | 11 | -5 | -8 | -2.2 | 0.8 | · | 3 |
| Cc1ccc(C(=O)N2N=C(c3ccccc3)CC2(O)C(F)(F)F)o1 (stereo not drawn) | i | -6 | -6 | -0.2 | -7 | -3 | 0.2 | ? | -1 | -5 |
| CSC(=CC(=O)c1ccc(F)cc1)SC | i | 0 | 4 | 0.3 | -1 | 5 | 0.0 | -3.0 | 12 | -8 |
